VDR inh = inhibitors of human vitamin D receptor; P11473; VDR-SRC2-3 peptide fluorescence polarization, 2 h; Potency, µM, inactives show max response, negative = inhibition, hits mostly inhibitors; 0.93% of 400,000 active; AID 504847; active = well fitted inhibition curve with a large enough effect; inconclusive = small, poorly fitted or top-dose-only effect, or another doubt; inactive = no such curve, though single readings can be large or run the other way; also: series mostly up to about 120 µM
Target sequence (P11473 whole entry, looked up): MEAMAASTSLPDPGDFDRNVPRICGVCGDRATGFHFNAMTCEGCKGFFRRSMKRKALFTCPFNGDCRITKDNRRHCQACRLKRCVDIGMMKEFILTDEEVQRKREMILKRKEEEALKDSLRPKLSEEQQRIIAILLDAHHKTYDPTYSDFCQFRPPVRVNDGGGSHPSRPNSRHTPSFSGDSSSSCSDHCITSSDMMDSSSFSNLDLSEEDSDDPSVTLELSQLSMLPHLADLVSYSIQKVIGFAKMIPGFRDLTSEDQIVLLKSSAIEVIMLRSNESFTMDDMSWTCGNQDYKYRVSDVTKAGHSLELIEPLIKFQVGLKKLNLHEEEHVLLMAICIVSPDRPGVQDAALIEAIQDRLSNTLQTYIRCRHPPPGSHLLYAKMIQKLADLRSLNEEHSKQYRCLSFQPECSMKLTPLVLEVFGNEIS
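Reagent solutions, kept cold and dark, are dispensed first; compounds are then pinned in at 23 nl, plates briefly spun, and incubated 2 h at ambient temperature. Inhibition of VDR–SRC2-3 peptide binding is read by fluorescence polarization.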
Active calls of the source: *; ? = inconclusive; & = joins results of further samples. % is scaled to controls: 0 for no effect and ±100 for the full control effect; potency is read from the fitted curve at half-maximal effect. A portion of the library, so the mix of outcomes need not match the whole.

VDR inh | compound
-19.0% | CCCN1CCC(=O)N(C(CSc2ccc(C)cc2)CC(C)C)CC1 (configuration not stated)
6.8% | COc1ccc(NCC(=O)Nc2ccccc2C#N)cc1Cl
-2.9% | CCOc1ccc(N2CC(C(=O)NC3CCCC3)CC2=O)cc1 (configuration not stated)
-10.1% | CCCc1c(O)c2ccccc2n(-c2ccccc2)c1=O
14.4% | COc1ccc2c(C)c(C(=O)N3CCN(Cc4ccccc4)CC3)oc2c1
20.2% | Cn1c(SCc2ccc(C(F)(F)F)cc2)nc2c([nH]c3ccccc32)c1=O
-21.2% | O=C(c1cn(Cc2ccccc2)nc1-c1ccc(Cl)cc1)N1CCN(c2ccccn2)CC1
-8.0% | CCCNC(=O)C(Cc1ccc(I)cc1)NC(=O)c1ccc2ccccc2n1 (configuration not stated)
-4.8% | COc1ccc(-c2cn3c(n2)sc2cc(C(=O)Nc4cc(OC)cc(OC)c4)ccc23)cc1
-1.1% | O=C(CN1CCCCCC1)Nc1ccc(S(=O)(=O)N2CCOCC2)cc1
23.3% | Cc1cc(N2CCOCC2)c(F)cc1C(=O)c1ccccc1
-7.8% | CCCc1cc(C(=O)N(C)CC(=O)Nc2ccc(OCC)c(OCC)c2)sc1C
-18.4% | O=C(C[C@@H]1C/C=C\C[C@H](Cc2ccc(F)cc2)C(=O)OC[C@@H]2CCCN2C1=O)N[C@H](CO)Cc1ccccc1
3.7% | O=C1NCCCc2c1oc1cc(Br)c(O)c(Br)c21
2.4% | O=C(CSc1nnc(-c2cccs2)o1)N1CCOCC1
-7.8% | CCOc1ccc(Br)cc1S(=O)(=O)NCc1ccc(S(N)(=O)=O)cc1
-25.5% | O=C(COC(=O)c1cc(S(=O)(=O)N2CCOCC2)ccc1F)c1ccccc1
11.0% | COc1cc(NS(=O)(=O)c2ccc(NC(=S)NC(=O)/C=C/c3ccco3)cc2)ncn1
-2.1% | CCc1ccc2nc(Nc3nc(COC)cc(=O)[nH]3)nc(C)c2c1
-5.1% | CN(C)c1ccc(NC(=O)Cn2cc(S(=O)(=O)Cc3ccccc3Cl)c3ccccc32)cc1
10.2% | CN(C)c1cc[n+](CC(=O)Nc2ccc(Cl)c([N+](=O)[O-])c2)cc1
-21.7% | O=C(COC(=O)c1cnc(Cl)c(Cl)c1)c1ccc(F)cc1
7.0% | COC(=O)c1ccccc1NC(=O)COC(=O)CSCC(=O)N1CCOCC1
13.5% | CCOc1c([N+](=O)[O-])cc2c(C)c(C(=O)N3CCN(C)CC3)oc2c1OCC
5.9% | Cc1oc2ncnc(N3CCCCC3)c2c1C(=O)N1CCN(c2cccc(Cl)c2)CC1
-5.4% | Cc1cccc(OCC(=O)OCC(=O)Nc2ccc(Cl)cn2)c1
-12.6% | CC1CCc2nn(CC(=O)N3CCc4ccccc43)cc2C1 (configuration not stated)
10.0% | CCOc1ccc(NC(=O)CCS(=O)(=O)c2ccc(Br)s2)cc1
9.4% | CC(C)(C)OC(=O)N/N=C/c1cc(N=Nc2ccccc2)ccc1O
-22.6% | Cc1cc(Cl)ccc1OCC(=O)OCC(=O)Nc1cccnc1Cl

Reprinted from the part before: five entries, followed by the next part.
VDR inh | compound
-5.4% | Cc1cccc(OCC(=O)OCC(=O)Nc2ccc(Cl)cn2)c1
-12.6% | CC1CCc2nn(CC(=O)N3CCc4ccccc43)cc2C1 (configuration not stated)
10.0% | CCOc1ccc(NC(=O)CCS(=O)(=O)c2ccc(Br)s2)cc1
9.4% | CC(C)(C)OC(=O)N/N=C/c1cc(N=Nc2ccccc2)ccc1O
-22.6% | Cc1cc(Cl)ccc1OCC(=O)OCC(=O)Nc1cccnc1Cl
? | Cc1cccc(C(C)C)c1NC(=O)c1cccnc1
-4.4% | Oc1cccc2c(-c3nn[nH]n3)ccnc12
-14.9% | CCN(CC(=O)Nc1cc(C)nn1-c1nc(C)cc(C)n1)Cc1ccccc1
2.1% | COC(=O)C1=CN(c2ccc(F)cc2)C=C(C(=O)OC)C1c1ccc(O)cc1
3.2% | O=c1ncn(C2CCCCC2)c(=O)[nH]1
-8.2% | O=C(NCc1nc(-c2ccccc2)no1)c1cccs1
-15.2% | CC(=O)NC(NC(C)=O)c1ccc(Br)cc1
7.7% | CC1=CC(C2CC(=O)N(c3ccc(C)cc3)C2=O)CC2C(=O)N(c3ccc(C)cc3)C(=O)C12 (configuration not stated)
-8.3% | Cc1ccc(NC(=O)CN(C)C(=O)CCC(=O)c2cccs2)cc1
? | O=[N+]([O-])c1cc(S(=O)(=O)C(F)(F)F)ccc1Sc1nc2ccccc2[nH]1
8.7% | Cc1ccccc1-n1c(SCC(=O)Nc2cccc3ccccc23)nc(O)cc1=O
-19.3% | CC(C)Cc1ccc(C(C)NC(=O)Cc2ccc(S(=O)(=O)N3CCOCC3)s2)cc1 (configuration not stated)
-4.2% | Cc1ccc(NC(=O)COc2cccc(-n3cnnn3)c2)cc1[N+](=O)[O-]
-12.1% | CCc1ccc(-c2nc(CN3CCCC(C(=O)N4CCN(c5cc(Cl)ccc5C)CC4)C3)c(C)o2)cc1 (configuration not stated)
-12.9% | COc1cc(OC)cc(C(=O)NCC(=O)OCC(=O)NC2CCCc3ccccc32)c1 (configuration not stated)
1.8% | CC(OC(=O)Cc1coc2cc3c(cc12)CCC3)C(=O)NCc1ccc2c(c1)OCO2 (configuration not stated)
-0.5% | CCCOc1cccc(C(=O)NC(=S)Nc2cccc(NC(=O)c3ccccc3Cl)c2)c1
0.1% | CCOC(=O)c1ccc(NC(=O)c2nc[nH]c2C(=O)N[C@H](C)c2ccccc2)cc1
-1.0% | CCC(C)NC(=O)c1ccccc1SC (configuration not stated)
3.4% | CC(NC(=O)COC(=O)c1ccc(CO)cc1)C1CC2CCC1C2 (configuration not stated)
-18.3% | Cc1ccc(S(=O)(=O)N2CCN(C(=O)COC(=O)COc3ccc(Cl)cc3C)CC2)c(C)c1
-4.7% | O=C(CSc1ncnc2sc3c(c12)CCC3)NCC1CCCO1 (configuration not stated)
-0.8% | COc1cccc(NC(=O)NCCN2CCCCC2)c1
7.7% | CCOC(=O)C1CCN(C(=O)CNS(=O)(=O)c2cccs2)CC1
4.1% | O=C(COC(=O)c1cnccn1)c1ccc2c(c1)CCCC2
6.9% | O=C(CCCN1C(=O)c2ccccc2C1=O)Nc1cccnc1
-27.1% | Cc1oc(-c2ccccc2)cc1C(=O)Nc1cccc2ccccc12
-7.4% | COC/C=C/C1=CC2=CC(=O)C(C)(OC(=O)c3cnc4ccccc4n3)C(=O)C2=CN1CCOC (configuration not stated)
-9.7% | O=C(Nc1ccc(N2CCN(C(=O)c3ccccc3)CC2)cc1)c1cccnc1
-10.4% | Cc1cc(C(=O)COc2cccnc2[N+](=O)[O-])c(C)n1Cc1ccco1
1.2% | O=C(COc1ccc(S(=O)(=O)NCc2ccccc2)cc1)NCC1CCCO1 (configuration not stated)
1.5% | CCCCN(Cc1cccs1)S(=O)(=O)c1cc(-c2cc(C)no2)ccc1C
6.1% | CC12CN(C(=O)c3cccc([N+](=O)[O-])c3)C3(C#N)CC1CCC23C (configuration not stated)
9.0% | Cc1ccc(NCc2nnc3n2CCCCC3)cc1
3.3% | Cc1ccccc1OCC(=O)NNC(=O)CN1C(=O)c2ccccc2C1=O
12.7% | COc1ccc(S(=O)(=O)NCc2ccc(C)cc2)cc1
? | O=C(Cc1ccc(Cl)cc1)Nc1ccc(N2CCN(C(=O)c3ccco3)CC2)c(Cl)c1
13.2% | COc1ccc(NC(=O)CCC(=O)c2ccc(-c3ccccc3)cc2)cc1
7.5%&8.0% | COc1ccccc1N(CC(=O)NCCSCc1ccc(Cl)cc1)S(C)(=O)=O
4.0% | COc1cc(C(C)=O)ccc1OCc1cc(C(=O)N2CCSCC2)no1
-2.0% | CCOc1[nH]n(-c2ccccc2)c(=O)c1C=Nc1ccc(C)cc1
-18.8% | Fc1ccc(-n2c(-c3cccs3)nc3nc4ccccc4nc32)cc1
-2.8% | O=C(Cc1coc(-c2ccc(F)cc2)n1)Nc1ccccc1
20.2% | CCOC(=O)c1sc(NC(=O)CCN2C(=O)c3cccc([N+](=O)[O-])c3C2=O)c(C(=O)OCC)c1C
4.0% | CCOC(=O)c1sc(NC(=O)CSc2ccccn2)c(C#N)c1C
-20.5% | C/C=C/C=C\C(=O)Nc1cccc(C2=NOC3(C2)C[C@@H](C(N)=O)N(C(=O)/C(C)=C/C)C3)c1 (some centres not stated)
2.5% | CCOc1ccc(CNC(=O)CCc2cn(C)c3ccccc23)cc1
2.0% | c1ccc(-c2nnc(SCc3nc4ccccc4[nH]3)n2Cc2ccco2)nc1
-16.7% | Cc1ccc(C(=O)NNC(=O)COC(=O)COc2ccccc2C#N)cc1
-16.2% | COC(=O)c1ccc(Cl)c(NC(=O)c2cccc([N+](=O)[O-])c2C)c1
25.1% | O=C(Nc1ccccc1)c1ccccc1NC(=O)c1ccccc1C(=O)O
-0.8% | COc1cccc(C(=O)N2CCC(C(=O)N3CCN(C)CC3)CC2)c1
-11.8% | CCCOc1ccc(C(=O)Nc2ccc(NC(=O)c3cccs3)cc2)cc1
0.7% | O=C(NCCc1ccccc1)C(=O)NCC1OCCN1S(=O)(=O)c1ccc([N+](=O)[O-])cc1 (configuration not stated)
2.5% | CC(C)(C)C1CCc2c(sc(NC(=O)c3ccco3)c2C(N)=O)C1 (configuration not stated)
3.7% | COc1c2ccoc2nc2c(OC)c(O[C@@H]3O[C@H](C)[C@@H](O)[C@@H](O)[C@H]3O)ccc12
-5.6% | O=C(NCCc1ccccc1)/C(=C/c1ccco1)c1ccccc1
-1.5% | CCc1nnc2c3ccccc3nc(Nc3ccccc3OC)n12
-10.7% | O=C(/C=C/c1ccccc1)NC(=O)c1ccccc1O
-2.4% | CCOC(=O)c1ccccc1NC(=O)c1ccc2nc[nH]c2c1

Quoted from the listing:
Entry for CCCOc1ccc(C(=O)Nc2ccc(NC(=O)c3cccs3)cc2)cc1 in VDR inh: -11.8%
Entry for COc1cc(C(C)=O)ccc1OCc1cc(C(=O)N2CCSCC2)no1 in VDR inh: 4.0%

The main list resumes, starting 2 compounds before the break.
VDR inh | compound
-10.7% | O=C(/C=C/c1ccccc1)NC(=O)c1ccccc1O
-2.4% | CCOC(=O)c1ccccc1NC(=O)c1ccc2nc[nH]c2c1
0.9% | O=C(NCCc1cccs1)c1ccc(Cl)c(Cl)c1
-14.6% | CC(C)N(Cc1ccccc1)C(=O)COC(=O)c1cc[n+]([O-])cc1
-11.2% | O=C(c1ccc2c(c1)N(Cc1ccccc1)C(=O)c1ccccc1S2(=O)=O)N1CCC(Cc2ccccc2)CC1
7.5% | Cn1c(C(C#N)C(=O)Cc2cccc3ccccc23)nc2ccccc21 (configuration not stated)
-6.2% | Cc1ccc(NC(=O)C(=O)NCC(c2cccnc2)N2CCN(c3ccccc3F)CC2)cc1Cl (configuration not stated)
5.6% | NC(=O)C1CCN(CC(=O)c2c[nH]c3ccc(F)cc23)CC1
-6.3% | CCCn1c(N)c(N(CCOC)C(=O)c2ccccc2F)c(=O)[nH]c1=O
2.0% | Cc1nc(SCC(=O)Nc2ccc(F)cc2)c(C#N)c(C)c1CC(=O)c1ccc(Br)cc1
1.1% | CC(C)(C)N(Cc1ccccc1)C(=O)CN1C(=O)NC2(CCCCCC2)C1=O
-12.6% | CCn1c(C)nc2cc(C(=O)NNC(=O)CCC3CCCC3)ccc21
-13.7% | Cc1ccc(-c2n[nH]c(=O)c3ccccc23)cc1S(=O)(=O)Nc1ccc(F)cc1
13.2% | CCOC(=O)C1CCCN(C(=O)CC(C)c2ccccc2)C1 (configuration not stated)
5.2% | Cc1ccc(NC(=O)c2oc3c(c2C)-c2[nH]ncc2CC3)c(Cl)c1
-10.8% | O=C(C1CCC(=O)N1C1CCCCC1)N1CCN(c2ccc(F)cc2)CC1 (configuration not stated)
-13.9% | CSc1nnc2n(-c3cccc(C)c3)c(=O)c3c4c(sc3n12)CCCC4
-12.1% | Cc1ccc(N(CC(=O)O)S(C)(=O)=O)cc1Cl
-2.6% | Cn1ccc2c(OCC(=O)Nc3ccc([N+](=O)[O-])cc3)cccc2c1=O
-18.7% | Cc1ccc(C(CNS(=O)(=O)c2ccc(F)cc2)N2CCN(C)CC2)cc1 (configuration not stated)
-4.9% | FC(F)(F)c1cccc(N2CCN(C(=S)NCC3CCCO3)CC2)c1 (configuration not stated)
-8.1% | CCN(CC)S(=O)(=O)c1ccc2c3c(cccc13)C(=O)N2
0.2% | O=C(Cc1cccs1)Nc1nc(-c2ccc(F)c(F)c2)cs1
-11.0% | Cc1ccc(S(=O)(=O)N2CCCC2)cc1[N+](=O)[O-]
-12.8% | O=C(NCCc1c[nH]c2ccccc12)/C(=C\c1cccnc1)NC(=O)c1ccccc1F
-8.1% | C=CCN1C(=O)c2ccc(C(=O)N(C)CC(=O)Nc3ccccc3Br)cc2C1=O
5.8% | Cc1cc(=O)[nH]c(SCC(=O)N(CCC#N)c2ccccc2)c1C#N
-13.8% | COc1ccc(S(=O)(=O)NC(CC(=O)NCc2ccco2)C(C)C)cc1 (configuration not stated)
-2.4% | Cc1ccc2nc(-c3cccnc3)c(Nc3ccc(C(C)C)cc3)n2c1
-8.6% | CCOc1ccc(NC(=O)c2cccc(NC(C)=O)c2)cc1S(=O)(=O)N1CCCC1
3.8% | Cn1c(=O)n(C)c2cc(/C=C3/NC(=O)N(Cc4ccccc4)C3=O)ccc21
0.6% | CCOc1cc(Cn2c(-c3ccc(O)c(OCC)c3)nc3ccccc32)ccc1O
5.9% | Fc1cccc(NC(=S)NNc2c3ccccc3nc3ccccc23)c1
-3.4% | Cc1ccc(NC(=O)c2ccc(S(=O)(=O)N3CCC(C)CC3)cc2)nc1
0.6% | c1ccc(CSc2ccc(-c3ccccn3)nn2)nc1
-6.2% | CNC(=O)C(C)c1ncc(C(F)(F)F)cc1Cl (configuration not stated)
4.7% | O=c1ccc(-c2ccc(S(=O)(=O)NCC3CCN(Cc4cccc(F)c4)CC3)s2)n[nH]1
